Mtb H37Rv: Mycobacterium tuberculosis H37Rv growth inhibition, cell based, confirmatory dose response (AID 1949); M. tuberculosis H37Rv growth inhibition; most inactive calls were filed without a number and no value below 0 was filed; inhibition, % at 10 µg/mL, or IC50 in µg/mL where a hit was titrated; 100,000 tested, 1.6% active;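 active = confirmed in a dose series; inconclusive = about 50% or more but not retested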;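 also: bacteria grown 7 days with compound before Alamar blue readout; 0% = untreated bacteria and 100% = reference antibiotic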
* marks the source's active call; other numbers are inactive results; i = inactive; ? = inconclusive.

SMILES | Mtb H37Rv
O=C(CCCN1C(=O)c2cccc3cccc(c23)C1=O)Nc1ccc2c(c1)OCO2 | i
COc1ccccc1Nc1nc2c(s1)CCC2 | i
CCNC(=O)C(=O)Nc1cc(C)ccc1OC | i
C=CCn1c(SCC(=O)Nc2ccccc2CC)nnc1-c1cc2cccc(OC)c2o1 | 3%
O=C(C1=C(O)C(=O)N(Cc2ccco2)C1c1cccc(Cl)c1)c1ccco1 (centres undefined) | 12%
Nn1cnnc1N/N=C/c1cc(Cl)ccc1O | 4%
CCOc1ccc(OCc2ccc(C(=O)Nc3cccc(C)n3)o2)cc1 | 7.1µg/mL*
C=CCn1c(SCC(=O)Nc2nccs2)nnc1-c1ccncc1 | i
O=C(/C=C/c1cccc(C(F)(F)F)c1)Nc1cccc(C(F)(F)F)c1 | 0.9µg/mL*
COc1cc(Cl)cc2cc(C(=O)O)oc12 | i
Cc1ccc(-c2nnc(SCC(=O)Nc3cc(C)ccc3C)o2)cc1 | i
CCOC(=O)c1sc(NC(=S)Nc2ccc(S(=O)(=O)NC(=O)c3ccccc3)cc2)c(C(=O)OCC)c1C | i
Cc1cc(OCC(=O)NCc2ccco2)cc(C)c1Br | i
O=[N+]([O-])c1cccc(S(=O)(=O)N2CCCc3ccccc32)c1 | 11%
O=C(Cc1ccc([N+](=O)[O-])cc1)Nc1ccc(Oc2ccccc2)cc1 | 2%
C=Cc1ccc(COc2cc(C)cc3oc(=O)c(C)c(C)c23)cc1 | i
O=C(CC1COc2ccccc2O1)NCCc1ccccc1 (centres undefined) | 6%
S=C(Nc1cccc2ccccc12)NN1CCOCC1 | i
CCc1ccccc1N1CCN(S(=O)(=O)c2cc(C)c(OC)cc2C)CC1 | i
CC(C)(C)CC(=O)Nc1ccc(Cl)cc1 | 3%

16 structures already listed, ordered by formula weight, highest first:
SMILES | Mtb H37Rv
CCOC(=O)c1sc(NC(=S)Nc2ccc(S(=O)(=O)NC(=O)c3ccccc3)cc2)c(C(=O)OCC)c1C | i
C=CCn1c(SCC(=O)Nc2ccccc2CC)nnc1-c1cc2cccc(OC)c2o1 | 3%
O=C(CCCN1C(=O)c2cccc3cccc(c23)C1=O)Nc1ccc2c(c1)OCO2 | i
CCc1ccccc1N1CCN(S(=O)(=O)c2cc(C)c(OC)cc2C)CC1 | i
O=C(C1=C(O)C(=O)N(Cc2ccco2)C1c1cccc(Cl)c1)c1ccco1 (centres undefined) | 12%
O=C(/C=C/c1cccc(C(F)(F)F)c1)Nc1cccc(C(F)(F)F)c1 | 0.9µg/mL*
C=CCn1c(SCC(=O)Nc2nccs2)nnc1-c1ccncc1 | i
CCOc1ccc(OCc2ccc(C(=O)Nc3cccc(C)n3)o2)cc1 | 7.1µg/mL*
Cc1cc(OCC(=O)NCc2ccco2)cc(C)c1Br | i
C=Cc1ccc(COc2cc(C)cc3oc(=O)c(C)c(C)c23)cc1 | i
O=[N+]([O-])c1cccc(S(=O)(=O)N2CCCc3ccccc32)c1 | 11%
S=C(Nc1cccc2ccccc12)NN1CCOCC1 | i
Nn1cnnc1N/N=C/c1cc(Cl)ccc1O | 4%
CCNC(=O)C(=O)Nc1cc(C)ccc1OC | i
COc1cc(Cl)cc2cc(C(=O)O)oc12 | i
CC(C)(C)CC(=O)Nc1ccc(Cl)cc1 | 3%

(listing goes on)
SMILES | Mtb H37Rv
CC(C)Oc1ccc(C(CC(=O)O)C(C)C)cc1 (centres undefined) | i
Cc1nc(SCCOc2ccc(F)cc2)c2ccccc2n1 | i
Oc1ccc(NC(=S)Nc2ccccc2F)cc1 | i
Fc1ccc(CN2CCN(c3ncnc4c3cnn4-c3ccccc3)CC2)cc1 | i
O=C(Cc1ccc(Cl)cc1)NCc1cccs1 | i
Cc1ccc(C(=O)Nc2cc(Cl)c(O)c(Cl)c2)cc1C | i
COC(C(=O)O)(c1ccccc1)c1ccccc1 | i
O=C(Nc1ccc(N2CCN(c3c(F)c(F)c(F)c(F)c3F)CC2)cc1)c1cc2ccccc2o1 | 0%
Clc1ccc(C2CC(c3cccc(Br)c3)n3ncnc3N2)c(Cl)c1 (centres undefined) | 45%
COCCNC(=O)c1ccc(CSc2ccccc2)cc1 | i
COc1ccc(N(CC(=O)Nc2cccc(N(C)S(C)(=O)=O)c2)S(C)(=O)=O)cc1OC | i
COC(=O)CSc1nc(-c2ccccc2)c(-c2ccccc2)o1 | 5.6µg/mL*
CC1CCc2c(C(=O)NN3CCOCC3)csc2C1 (centres undefined) | i
O=C(Nc1ccc(F)c(Cl)c1)c1ccc(CN2CCOCC2)cc1 | i
CC(=O)Oc1cccc(C(=O)Nc2ccc(Br)cc2C)c1 | i
CCOC(=O)c1ccc(N2C(=O)CC(Sc3nc(-c4ccccc4)c4ccccc4n3)C2=O)cc1 (centres undefined) | i
Cc1nn(-c2ccccc2)c2sc(C(=O)N3CCC(C(N)=O)CC3)cc12 | 3%
COc1ccc(NC(=O)CSc2nc(-c3ccccc3)cc(=O)[nH]2)c(OC)c1 | i
O=C1N(CCc2ccccc2)c2ccc(Cl)cc2C1(O)c1c[nH]c2ccccc12 (centres undefined) | 5%
O=C(COc1ccc2ccc(=O)oc2c1)NC1CC1 | i
O=C(O)C1CCCCC1C(=O)Nc1nc(-c2ccc(Cl)cc2)cs1 (centres undefined) | 1%
O=C1OC(c2ccccc2)=C/C1=C\c1c(Cl)cccc1Cl | 2%
CC(C)(C)NS(=O)(=O)c1ccc(NC(=O)c2cccc(I)c2)cc1 | i
CC(C)C(=O)Nc1cccc(NC(=O)c2ccc(Br)o2)c1 | i
Cc1cc(C)cc(OCc2ccc(C(=O)Nc3ccccc3F)o2)c1 | i
CCOC(=O)c1cnc2c(C)c(C)ccc2c1NCc1ccco1 | 3.9µg/mL*
O=C(Nc1ccc(NC(=O)C2CC3CCC2C3)cc1)C1CC2CCC1C2 (centres undefined) | 2%
CCOc1ccccc1NC(=O)Nc1cccc(Cl)c1 | 2%
COCCCn1c(=NC(=O)c2c(-c3c(F)cccc3Cl)noc2C)c(C#N)cc2c(=O)n3ccccc3nc21 | 0%
Nc1nc2cc3c(cc2cc1C(=O)Nc1ccccc1)OCO3 | i
Cc1cc(C)c(S(=O)(=O)N(CC(=O)NCc2ccco2)Cc2ccccc2)c(C)c1 | i
Cc1ccnc(-n2c(CCN3C(=O)c4ccccc4C3=O)nc3ccccc3c2=O)c1 | i
N=C1C(c2nc3ccccc3s2)=C(O)CN1CCc1ccccc1 | 7%
Cc1cc(C)nc(NC2=NCC(=O)N2c2ccc(C(C)C)cc2)n1 | i
Cc1ccc(-n2c(SCC(=O)N3CCOCC3)nnc2-c2ccncc2)cc1 | i
O=C(Nc1ccc(F)cc1)N1CCN(c2ncccn2)CC1 | i
COC(=O)C(C)Oc1cc(C)cc2oc(=O)cc(-c3ccccc3)c12 (centres undefined) | 1%
CCn1c(SCC(=O)Nc2ccc(C)c([N+](=O)[O-])c2)nnc1-c1ccc(C)cc1 | i
O=C(COc1ccccc1Cl)Nc1ccc(-c2cc3ccccc3oc2=O)cc1 | i
Cc1onc(-c2ccccc2)c1C(=O)Nc1nnc(COc2ccc(Cl)cc2)s1 | ?
CC1(C)CC(=O)C2=C(C1)Nc1[nH]c(=S)[nH]c(=O)c1C2c1cccnc1 (centres undefined) | i
C=CCN1CC(c2nc3ccccc3n2CCC)CC1=O (centres undefined) | i
O=C(C(=O)N1CCOCC1)c1cn(CC(=O)N2CCCc3ccccc32)c2ccccc12 | i
N#C/C(=C\c1ccc(-c2ccc3c(c2)C(=O)NC3=O)o1)c1nc2ccccc2[nH]1 | 46%
CCCCN(CCCC)S(=O)(=O)c1ccc2[nH]c(=O)[nH]c2c1 | i
Cc1cccc(C)c1NC(=O)CN1CCCCCC1 | i
Cn1cccc1C=NN1CCN(C2c3ccccc3-c3ccccc32)CC1 | 1%
CCNS(=O)(=O)c1ccc(NC(=O)Nc2cccc(C(F)(F)F)c2)cc1 | 7.8µg/mL*
O=[N+]([O-])c1ccc(-c2ccc(-c3nn4c(Cc5ccccc5)nnc4s3)o2)cc1 | 2%
Cc1ccsc1/C=C(\C#N)c1nc(C2CC2)cs1 | 2%
CCCCOC(=O)Nc1nc2ccc([N+](=O)[O-])cc2s1 | i
Nc1nnc(SCC(=O)c2ccc(-c3ccccc3)cc2)s1 | 2%
CCCCSc1nnc(NC(=O)c2ccccc2)s1 | i
COc1ccc(-c2cc(C(=O)n3cnc4ccccc43)c3ccccc3n2)cc1 | i
NC(=O)C1CCN(C(=O)CN(Cc2ccc(Br)cc2)S(=O)(=O)c2ccccc2)CC1 | i
C=CCNC(=O)c1cc(-c2ccccc2C)nc2ccccc12 | i
COc1ccccc1OCCCC(=O)NCCc1nc2ccccc2[nH]1 | i
CCC1(C)Cc2ccccc2-c2c1c(=O)n(-c1ccc(C)cc1)c1n[nH]c(=S)n21 (centres undefined) | i
CN1CCN(CCOc2ccccc2CO)CC1 | i
COC(=O)c1ccc(NC(=O)/C(=C\c2ccco2)NC(=O)c2ccc(Br)cc2)cc1 | i

Next part; it opens with the 2 that closed the last part.
SMILES | Mtb H37Rv
CN1CCN(CCOc2ccccc2CO)CC1 | i
COC(=O)c1ccc(NC(=O)/C(=C\c2ccco2)NC(=O)c2ccc(Br)cc2)cc1 | i
COC(=O)Cc1ccc(NC(=S)N2CCC(C(O)(c3ccccc3)c3ccccc3)CC2)cc1 | i
CCOC(=O)N1CCN(C(=O)CCc2ccc(S(=O)(=O)NC3CCCCC3)cc2)CC1 | i
CCn1c(SCC(=O)N2CCN(c3ccccc3)CC2)nnc1-c1ccncc1 | i
CCc1nc2ccccc2n1CC(=O)O | i
O=C(Nc1cccc(NC(=O)C2CC3CCCC(C2)C3=O)c1)C1CC2CCCC(C1)C2=O (centres undefined) | i
Fc1ccc(-c2nc(-c3ccccc3Cl)no2)cc1 | i
C=C1c2cc(CC)ccc2NC(=O)N1c1ccc(Br)cc1 | i
O=C1CC(NNc2ccccc2)C(=O)N1c1ccc(N2CCOCC2)cc1 (centres undefined) | 1%
N#Cc1cn(Cc2ccccc2Cl)c2ccccc12 | 10%
CCOC(=O)c1c(NC(=S)NC(C)c2ccncc2)sc2c1CCCCCC2 (centres undefined) | 33µg/mL*
CCOC(=O)c1cnc2ccc(Cl)cc2c1NCCN(C)C | i
COC(=O)c1ccc(C(=O)OC)c(NC(=O)CN(c2ccc(Oc3ccccc3)cc2)S(C)(=O)=O)c1 | i
C=CCn1c(CNC(=O)Cc2ccccc2)nc2ccccc21 | i
C=CCn1c(-c2ccc(O)cc2)n[nH]c1=S | i
COc1ccc(OC)c(N(CC(=O)Nc2ccc(C)cc2C)S(=O)(=O)c2ccc(OC)c(OC)c2)c1 | i
Cc1cc(NC(=O)C2(c3ccccc3)CCCC2)no1 | 10%
Cc1cc(C)cc(OCC(=O)NC2CCCCC2NC(=O)COc2cc(C)cc(C)c2)c1 (centres undefined) | i
CCOC(=O)c1c(C)nc2c(c1-c1ccccc1)C(=O)CC(C)(C)C2 | 7%
O=C(NC1CCC(NC(=O)c2cccc(F)c2)CC1)c1cccc(F)c1 (centres undefined) | 3%
CCOC(=O)c1c(-c2ccc(C)cc2)csc1NC(=O)C1COc2ccccc2O1 (centres undefined) | 18%
O=C(NCCc1cccc(Cl)c1)c1ccc(Cl)cc1Cl | 1%
CCC1(C)Cc2ccccc2-c2nc3n(c(=O)c21)CCCS3 (centres undefined) | 24%
CCn1c(SCC(=O)Nc2ccc(C)cc2)nnc1-c1ccc(N)cc1 | i
Cc1nc(SCC(=O)c2c(C)[nH]c3ccccc23)c2ccsc2n1 | i
Cc1cc(Br)ccc1NC(=O)CCC1CCCCC1 | 3%
CC(=O)CC(=O)N1CCN(c2ccccc2)CC1 | i
CC(C)Cn1c2c(c(=O)[nH]c1=O)C(NC(=O)c1ccc(F)cc1)(C(F)(F)F)C(=O)N2 (centres undefined) | i
O=C1c2cccc3c(N4CCOCC4)c([N+](=O)[O-])cc(c23)C(=O)N1c1cc(Cl)ccc1O | i
COCc1cc(=O)[nH]c(SCC(=O)Nc2ccc(F)cc2)n1 | i
Cn1c(=O)c2c(nc(Oc3cccc(C=O)c3)n2Cc2ccccc2Cl)n(C)c1=O | i
CC(C)(C)CC(=O)N1CCN(c2ncccn2)CC1 | 1%
O=C(C(c1ccccc1)c1ccccc1)N1CCN(Cc2ccccn2)CC1 | i
O=Cc1cn(CC(=O)N2CCc3ccccc3C2)c2ccc(Br)cc12 | i
O=C(NC(=S)N1CCN(c2ccc([N+](=O)[O-])cc2)CC1)c1ccc(Br)cc1 | 17%
CNC(=O)CN(c1ccc(Cl)cc1)S(=O)(=O)c1ccc(OC)cc1 | i
CCN(CC)c1ccc(NC(=O)CSc2ccccn2)cc1C | 30%
Cc1c(CC(N)=O)c(=O)oc2cc(O)c(Cl)cc12 | 1%
CCc1cc2c(=O)c(-c3nc(C)cs3)coc2cc1OCC(=O)OC | i
CN(C)S(=O)(=O)NNC(=O)c1c[nH]c2ccccc12 | 4%
Cc1c(NC(=O)c2ccc(Br)o2)cccc1-c1nc2cc(Cl)ccc2o1 | i
FC(F)Oc1ccc(NC(=S)N2CCN(c3cccc(Cl)c3)CC2)cc1 | 1%
Cc1ccccc1CNC(=O)CSc1ccccc1 | i
Cc1ccc(NS(=O)(=O)c2ccc(NC(=O)Cn3cnc4c3c(=O)n(C)c(=O)n4C)cc2)cc1 | i
O=C(Cc1ccccc1)NC(=S)Nc1ccc(OC(F)F)cc1 | ?
Cc1n[nH]c(=S)n1CC(=O)n1c2c(c3ccccc31)CCCC2 | 2%
COc1cc(CNCc2cccnc2)ccc1OCc1ccc(Cl)cc1Cl | 8.2µg/mL*
O=C(Nc1c(C(=O)c2ccc(Br)cc2)oc2ccccc12)c1cccs1 | i
N#C/C(=C\c1cccs1)c1nc2ccccc2c(=O)[nH]1 | 2%
COc1ccc(NC(=O)C2CCN(C(=O)c3ccc(-c4ccccc4)cc3)CC2)cc1OC | i
CS(=O)(=O)N(CC(=O)N1CCN(c2ccccc2)CC1)c1ccc(Br)cc1 | i
CCc1ccc(C(C)NS(=O)(=O)c2ccc3oc4ccccc4c3c2)cc1 (centres undefined) | 12%
Cc1cc(=O)oc2ccc(OC(=O)COc3ccc(C(C)C)cc3)cc12 | i
CCN(CC)S(=O)(=O)c1ccc(NC(=O)C(C)(C)C)cc1 | i
CS(=O)(=O)N1CCN(C(=O)NC23CC4CC(CC(C4)C2)C3)CC1 | i

Compound activity from PubChem BioAssay.

Not all compounds are listed. The share of hits here may be higher or lower than overall.
